Bioassay records from PubChem.
Vaccinia stage: blocks a specific stage of Vaccinia orthopoxvirus infection. Vaccinia-infected cells, mCherry/Venus stage reporter fluorescence; hits give low values; some inactives read as strong as hits. activity change (mCherry), % (concentration not given with the values). 89,000 compounds, 0.01% hits. AID 1053133;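 active = mCherry past -33% and 40 or more points under the early reporter, replicates agreeing; inconclusive = past -33% without that gap or agreement; tested in A549 cells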;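 note: scaled between vehicle wells and reference inhibitor wells; 23 nL library stock went into each well; one replicate is shown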
Vaccinia stage Venus: recorded beside Vaccinia stage, whose call it bears; activity change (Venus), %; measured here: Venus reporter, other viral stage;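 negative = less Venus signal; first of two replicates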
* = called active by the depositor; ? = inconclusive; . = no result given; & = joins results of further samples.

SMILES | Vaccinia stage | Vaccinia stage Venus
Cc1ccc(S(=O)(=O)Nc2ccc3c(c2)C(=O)N([C@H](C)CO)C[C@@H](C)[C@H](CN(C)Cc2ccc(C(=O)O)cc2)O3)cc1 | 21 | 4
O=C(N[C@H]1CC[C@H](CCNS(=O)(=O)c2ccccc2)O[C@@H]1CO)c1cnccn1 | 9 | 6
C[C@@H]1CCCCO[C@@H](CN(C)Cc2ccccc2)[C@@H](C)CN([C@H](C)CO)C(=O)c2cc(NC(=O)Nc3ccc(C(F)(F)F)cc3)ccc2O1 | -5 | -6
COCC(=O)N1[C@@H]2c3ccc(C4=CCCCC4)c(=O)n3C[C@@H]2[C@@H](CO)[C@@H]1C(=O)N1CCCCC1 | 9 | 8
C[C@@H]1CN([C@H](C)CO)S(=O)(=O)c2ccc(Br)cc2O[C@H]1CN(C)C(=O)Nc1ccc(F)cc1 | 9 | -3
Cc1cccc(S(=O)(=O)N(C)C[C@@H]2OCc3cnnn3CCCC(=O)N([C@@H](C)CO)C[C@@H]2C)c1 | 4&6 | 16&12
CC(C)NC(=O)N(C)C[C@H]1OCCCC[C@@H](C)Oc2ccc(NC(=O)NC3CCCCC3)cc2C(=O)N([C@H](C)CO)C[C@@H]1C | -11 | -8
C[C@@H]1CN([C@H](C)CO)C(=O)c2cc(C3=CCCCC3)cnc2O[C@@H]1CN(C)Cc1ccc(C(=O)O)cc1 | 10 | -1
C[C@H](CO)N1C[C@H](C)[C@H](CN(C)C(=O)Nc2ccc3c(c2)OCO3)Oc2ncc(C#Cc3ccc(F)cc3)cc2C1=O | ? | .
C[C@@H]1CN([C@H](C)CO)C(=O)c2cccc(NC(=O)NC3CCCCC3)c2O[C@H]1CN(C)CC1CCCCC1 | ? | .
COc1ccc(CNC(=O)c2cc3c(c(-c4cccc(-c5ccc(C#N)cc5)c4)n2)[C@@H](CCO)N([S@](=O)C(C)(C)C)C3)cc1 | -18 | 9
Cc1ccc(S(=O)(=O)N[C@H]2CC[C@H](CCn3cc(C4CCCCC4)nn3)O[C@H]2CO)cc1 | -5 | -2

Next section; it opens with the 3 that closed the last part.
SMILES | Vaccinia stage | Vaccinia stage Venus
C[C@@H]1CN([C@H](C)CO)C(=O)c2cccc(NC(=O)NC3CCCCC3)c2O[C@H]1CN(C)CC1CCCCC1 | ? | .
COc1ccc(CNC(=O)c2cc3c(c(-c4cccc(-c5ccc(C#N)cc5)c4)n2)[C@@H](CCO)N([S@](=O)C(C)(C)C)C3)cc1 | -18 | 9
Cc1ccc(S(=O)(=O)N[C@H]2CC[C@H](CCn3cc(C4CCCCC4)nn3)O[C@H]2CO)cc1 | -5 | -2
COc1ccc2c3c(n(C)c2c1)[C@@H](CO)N(C(=O)C1CC1)CC31CN(Cc2ccccc2OC)C1 | -34 | -24
CNC[C@@H]1Oc2ncc(-c3ccc(F)cc3)cc2C(=O)N([C@H](C)CO)C[C@@H]1C | 2 | 3
C[C@@H]1CN([C@@H](C)CO)S(=O)(=O)c2ccc(-c3cccc(C(=O)N(C)C)c3)cc2O[C@@H]1CN(C)C(=O)Nc1ccc(F)cc1 | 20 | -5
Cc1ccc(S(=O)(=O)Nc2ccc3c(c2)CC(=O)N([C@@H](C)CO)C[C@@H](C)[C@@H](CN(C)Cc2ccncc2)O3)cc1 | 7 | -6
O=C(C[C@H]1CC[C@H](NS(=O)(=O)c2ccc(F)cc2)[C@@H](CO)O1)NCc1ccc(Cl)c(Cl)c1 | -29 | -21
C[C@H](CO)N1C[C@H](C)[C@@H](CN(C)C(=O)c2cccnc2)Oc2cc(C#CC3CC3)ccc2S1(=O)=O | 0 | 8
O=C(C[C@H]1CC[C@H](NC(=O)c2ccc(F)cc2)[C@@H](CO)O1)NCCc1ccncc1 | 7 | -8
C[C@@H]1CCCCO[C@@H](CN(C)C(=O)Nc2ccc(C(F)(F)F)cc2)[C@@H](C)CN([C@H](C)CO)C(=O)c2cc(NC(=O)c3ccccc3)ccc2O1 | 0 | 6
C[C@@H]1CN([C@H](C)CO)C(=O)c2cc(NS(=O)(=O)c3cn(C)cn3)ccc2O[C@@H](C)CCCCO[C@@H]1CN(C)C(=O)NC1CCCCC1 | 26 | 5
COCC#Cc1ccc2c(c1)O[C@@H](CN(C)C(=O)c1ccccc1F)[C@@H](C)CN([C@@H](C)CO)S2(=O)=O | -9 | -7
CNC(=O)C1=C[C@H](c2ccc(C(=O)OC)cc2)C[C@H](OCCCCO)O1 | 30 | 12
O=C(NC1CCCC1)[C@H]1[C@H](CO)[C@H]2Cn3c(cccc3=O)[C@@H]1N2CC1CCCC1 | 22 | 16
C[C@@H]1CN([C@H](C)CO)C(=O)c2cc(C#CC3CCCCC3)cnc2O[C@H]1CN(C)C(=O)NC1CCCC1 | -32 | -35
Cc1noc(C)c1NC(=O)Nc1ccc2c(c1)CC(=O)N([C@H](C)CO)C[C@H](C)[C@@H](CN(C)S(=O)(=O)c1ccccc1)O2 | 11 | 11
COc1ccc(CN(C)C[C@H]2OCCCC[C@H](C)Oc3ccc(NC(=O)Nc4cccc5ccccc45)cc3C(=O)N([C@H](C)CO)C[C@@H]2C)cc1 | -22 | -1
C[C@H](NC(=O)C[C@@H]1CC[C@@H]2[C@H](COC[C@@H](O)CN2C(=O)Nc2cccc(F)c2)O1)c1ccccc1 | ? | .
C[C@H](CO)N1C[C@H](C)[C@H](CN(C)CC2CC2)Oc2c(NC(=O)C3CCOCC3)cccc2C1=O | 20 | 22
C[C@@H]1CN([C@H](C)CO)C(=O)c2cc(C#Cc3cccnc3)cnc2O[C@H]1CN(C)Cc1ccccc1 | -5 | -17
O=C(Cc1ccccc1)N1CC[C@@H]2[C@@H](CO)Nc3ccc(-c4ccccc4)cc3[C@@H]21 | ? | .
COc1ccc2c3c([nH]c2c1)[C@H](CO)N(Cc1ccccc1F)CC31CCN(C(=O)C2CCOCC2)CC1 | 19 | 13
C[C@H](NC(=O)C[C@H]1C=C[C@H](NC(=O)c2cccnc2)[C@@H](CO)O1)c1ccccc1 | 3 | 7
CNC(=O)C[C@H]1CC[C@@H]2[C@H](COC[C@@H](O)CN2C(=O)Nc2ccc3c(c2)OCO3)O1 | -5 | -3
COc1ccc(S(=O)(=O)N[C@H]2C=C[C@@H](CC(=O)O)O[C@@H]2CO)cc1 | 14 | 7
CO[C@@H]1CN(C)C(=O)c2cc(NC(=O)C3CC3)ccc2OC[C@@H](C)N(C(=O)c2ccccc2)C[C@@H]1C | 2 | -4
O=C(c1cccc(F)c1)N1CC[C@@H]2[C@@H](CO)Nc3ccc(C#Cc4ccc(F)cc4)cc3[C@@H]21 | -29 | -24
CC(=O)N(C)C[C@H]1Oc2cc(-c3cccc(F)c3)ccc2S(=O)(=O)N([C@H](C)CO)C[C@@H]1C | -7 | 12
C[C@@H]1CN([C@@H](C)CO)C(=O)c2cccc(NC(=O)c3ccc(-c4nccs4)cc3)c2O[C@H]1CN(C)S(=O)(=O)c1ccc(F)cc1 | 7 | 5
C[C@@H]1CN([C@@H](C)CO)C(=O)Cc2cc(NC(=O)Nc3ccc(C(F)(F)F)cc3)ccc2O[C@H]1CN(C)Cc1ccc(C(F)(F)F)cc1 | -29 | -13
C[C@@H]1CN([C@H](C)CO)C(=O)Cc2cc(NC(=O)NC3CCCCC3)ccc2O[C@@H]1CN(C)S(=O)(=O)c1ccc(F)cc1 | 4 | 2
C/C=C/c1ccc([C@H]2[C@H]3CN(C(=O)Cc4cccnc4)CC(=O)N3[C@H]2CO)cc1 | -13 | -5
N#Cc1ccc(-c2ccc(C3[C@@H]4CN(Cc5ccccc5F)C[C@H]3N4)cc2)cc1 (stereo partly drawn) | ? | -22
Cc1ccc(S(=O)(=O)NCC[C@H]2CC[C@H](NC(=O)CC3CC3)[C@@H](CO)O2)cc1 | -3 | 15
Cc1ccc(S(=O)(=O)Nc2ccc3c(c2)C(=O)N([C@@H](C)CO)C[C@H](C)[C@@H](CN(C)S(=O)(=O)c2ccc(C)cc2)OCCCC[C@H](C)O3)cc1 | -12 | -12
COc1ccc(NC(=O)Nc2cccc3c2O[C@H](CN(C)CC2CCCCC2)[C@H](C)CN([C@@H](C)CO)C3=O)cc1 | -15 | -14
Cc1noc(C)c1S(=O)(=O)Nc1ccc2c(c1)C(=O)N([C@H](C)CO)C[C@H](C)[C@@H](CN(C)C(=O)Nc1cccc3ccccc13)OCCCC[C@@H](C)O2 | 16 | 15
CCCC#Cc1cnc2c(c1)C(=O)N([C@H](C)CO)C[C@@H](C)[C@H](CN(C)C(=O)NC1CCCC1)O2 | 11 | 3
C[C@H]1CN([C@@H](C)CO)C(=O)c2cc(NC(=O)Cn3cnnn3)ccc2O[C@H]1CN(C)S(=O)(=O)c1cccs1 | 34 | 11
COCC(=O)N(C)C[C@H]1Oc2ncc(C#C[C@@H](C)O)cc2C(=O)N([C@@H](C)CO)C[C@@H]1C | 1 | 2
Cc1ccccc1-c1ccc([C@H]2[C@H]3CN(C(=O)Nc4ccccc4)CCCCN3[C@H]2CO)cc1 | ? | .
C[C@H]1CN([C@@H](C)CO)C(=O)c2cc(/C=C/c3ccccc3)cnc2O[C@H]1CN(C)C(=O)C1CCCCC1 | -2 | 7
Cc1ccc(S(=O)(=O)N(C)C[C@H]2OCc3ccccc3-c3c(n(C)c4ccccc34)C(=O)N([C@H](C)CO)C[C@H]2C)cc1 | ? | .
O=C(Cc1cccnc1)N1CC(=O)N2[C@H](C1)[C@@H](c1ccc(C#CC3CCCC3)cc1)[C@@H]2CO | ? | .
COc1ccc2c3c([nH]c2c1)[C@@H](CO)N(C(=O)NC1CCCC1)CC31CN(S(C)(=O)=O)C1 | 16 | 9
COc1ccc(NC(=O)Nc2ccc3c(c2)C(=O)N([C@@H](C)CO)C[C@H](C)[C@H](CN(C)Cc2ccc4c(c2)OCO4)OCCCC[C@@H](C)O3)cc1 | ? | .
O=C(C[C@H]1C[C@H]2c3cc(NC(=O)NC4CCCC4)ccc3O[C@H]2[C@@H](CO)O1)NCc1ccc(Oc2ccccc2)cc1 | -2 | 5
O=C(NC[C@@H]1N[C@@H](CO)[C@@H]1c1ccc(C2=CCCC2)cc1)c1ccccc1 | ? | .
C[C@@H]1CN([C@H](C)CO)C(=O)c2cc(-c3cncnc3)cnc2O[C@H]1CN(C)C(=O)c1ccccc1F | 16 | -5
CO[C@@H]1CN(C)C(=O)c2ccc(NS(=O)(=O)CC(F)(F)F)cc2OC[C@H](C)N(C)C[C@H]1C | 1 | 1
CCCNC(=O)[C@@H]1[C@@H](CO)[C@@H]2Cn3c(ccc(-c4ccc(F)cc4)c3=O)[C@H]1N2C(=O)NC(C)C | 16 | 7
CN(C)CC(=O)Nc1ccc2c(c1)[C@H]1C[C@@H](CC(=O)NCc3ccccc3)O[C@@H](CO)[C@H]1O2 | 17 | 16
Cc1noc(C)c1NC(=O)Nc1ccc2c(c1)CC(=O)N([C@H](C)CO)C[C@@H](C)[C@H](CN(C)Cc1ccc(-c3ccccc3)cc1)O2 | 9 | 7
COc1cccc(-c2ccc([C@H]3[C@@H](CO)N(C(=O)Cc4ccncc4)[C@H]3C#N)cc2)c1 | -19 | -7
O=C1O[C@H](c2ccccc2)[C@H](c2ccccc2)N2[C@H]1[C@@H](C(=O)N1CCCCCCC1)[C@]1(C(=O)Nc3ccc(C#CC4=CCCCC4)cc31)[C@H]2c1ccc(O)cc1 | -9 | -5
CC(C)NC(=O)Nc1ccc2c(c1)CC(=O)N([C@H](C)CO)C[C@H](C)[C@@H](CN(C)Cc1ccncc1)O2 | 10 | 0
CO[C@@H]1CC[C@H]2CCOc3c(C#N)cccc3C(=O)N(C)C[C@@H](C)C(=O)N(C)C[C@H]1O2 | 24 | 19
Cc1ccc(S(=O)(=O)N(C)C[C@@H]2OCc3cn(nn3)CCCC(=O)N([C@@H](C)CO)C[C@@H]2C)cc1 | 4 | 2
C[C@@H]1CN([C@@H](C)CO)C(=O)c2cc(-c3ccc(F)cc3)cnc2O[C@@H]1CN(C)C(=O)c1ccccc1F | 15 | 9
CO[C@H]1CN(C)C(=O)c2ccc(NC(C)=O)cc2OC[C@H](C)N(C(=O)c2ccncc2)C[C@H]1C | -5 | 4
O=C(NCc1nc2ccccc2[nH]1)C1=C[C@H](c2coc3ccccc3c2=O)C[C@H](OCCCCO)O1 | 2 | 7
C[C@@H]1CN([C@@H](C)CO)C(=O)Cc2cc(NC(=O)Cn3cnnn3)ccc2O[C@H]1CN(C)S(=O)(=O)c1cn(C)cn1 | 10 | 4

By substructure, the compounds so far with an aryl methoxy group (9)
SMILES | Vaccinia stage | Vaccinia stage Venus
COc1ccc(CNC(=O)c2cc3c(c(-c4cccc(-c5ccc(C#N)cc5)c4)n2)[C@@H](CCO)N([S@](=O)C(C)(C)C)C3)cc1 | -18 | 9
COc1ccc2c3c(n(C)c2c1)[C@@H](CO)N(C(=O)C1CC1)CC31CN(Cc2ccccc2OC)C1 | -34 | -24
COc1ccc(CN(C)C[C@H]2OCCCC[C@H](C)Oc3ccc(NC(=O)Nc4cccc5ccccc45)cc3C(=O)N([C@H](C)CO)C[C@@H]2C)cc1 | -22 | -1
COc1ccc2c3c([nH]c2c1)[C@H](CO)N(Cc1ccccc1F)CC31CCN(C(=O)C2CCOCC2)CC1 | 19 | 13
COc1ccc(S(=O)(=O)N[C@H]2C=C[C@@H](CC(=O)O)O[C@@H]2CO)cc1 | 14 | 7
COc1ccc(NC(=O)Nc2cccc3c2O[C@H](CN(C)CC2CCCCC2)[C@H](C)CN([C@@H](C)CO)C3=O)cc1 | -15 | -14
COc1ccc2c3c([nH]c2c1)[C@@H](CO)N(C(=O)NC1CCCC1)CC31CN(S(C)(=O)=O)C1 | 16 | 9
COc1ccc(NC(=O)Nc2ccc3c(c2)C(=O)N([C@@H](C)CO)C[C@H](C)[C@H](CN(C)Cc2ccc4c(c2)OCO4)OCCCC[C@@H](C)O3)cc1 | ? | .
COc1cccc(-c2ccc([C@H]3[C@@H](CO)N(C(=O)Cc4ccncc4)[C@H]3C#N)cc2)c1 | -19 | -7

An excerpt; the hit share may differ from the screen's.
